VACV mCherry inh = vaccinia inhibition (mCherry reporter) | Vaccinia virus mCherry reporter infection, fluorescence; about a quarter of the inactives have no number | Potency, µM (top dose mostly 36.5 µM), inactives show at the top dose activity change, negative = inhibition, most hits filed as inhibitors | actives 0.63% (n = 310,000) | AID 720579; active = well fitted inhibition curve with a large enough effect; inconclusive = small, poorly fitted or top-dose-only effect; inactive = no such curve, though single readings can be large or run the other way; tested in A549 cells; note: nearly all actives have a fitted effect of over 35% in size; inactives centre near -10
VACV Venus inh = vaccinia inhibition (Venus reporter). Vaccinia virus Venus reporter expression, fluorescence. AID 720580. actives 0.46% (n = 330,000). Potency, µM (doses to about 36.5 µM), without a hit: top-dose activity change, negative = inhibition, hits mostly inhibitors; active means well fitted inhibition curve with a large enough effect; inconclusive means small, poorly fitted or top-dose-only effect; inactive means no such curve, though single readings can be large or run the other way; tested in A549 cells; note: nearly all actives have a fitted effect of over 30% in size; inactives centre near -10
Active calls of the source: *; i = inactive; ? = inconclusive; . = not tested or not shown; & = joins results of further samples. % is set by controls: 0 for no effect and ±100 for the full control effect; potency is the fitted concentration of half-maximal effect.

Structure	VACV mCherry inh	VACV Venus inh
COc1ccc(NC(=O)c2sc3nc4c(cc3c2N)CN(Cc2ccccc2)CC4)cc1	-7%	-3%
CCOC(=O)c1cc(C(=O)n2cc(Cl)cn2)nn1C	-18%	-2%
CCOC(=O)C1CCN(C(=O)Cc2ccccc2OC)CC1	-1%	-5%
O=C(Nc1ccc(F)cc1F)c1ccc(CN2CC(=O)N3CCCCC3C2=O)cc1 (stereo not given)	-10%	4%
O=C(NN=C(Cc1ccccc1)Cc1ccccc1)c1ccccc1F	-1%	-8%
Cc1oc(/C=N/NC(=O)CN(c2ccccc2Cl)S(C)(=O)=O)cc1Br	-20%	-26%
CCCOc1cccc(-c2cc(C(=O)N/N=C/c3ccccn3)c3ccccc3n2)c1	?	-7%
Cc1cc(CSc2ccccc2)ccc1NC(=O)c1ccc(Br)cc1	-5%	-15%
CC(=O)[C@@]1(O)CCC2C3CC=C4C[C@@H](O)CC[C@]4(C)C3CC[C@@]21C (stereo not given in full)	-20%	-10%
O=C(COc1ccc2ccccc2c1)Nc1nc2ccccc2[nH]1	.	-21%
COc1cccc(C(=O)Nc2ccc(-c3cc(C(F)(F)F)nn3-c3ccccc3)cc2)c1	-18%	?
Cc1nnc(SCC(=O)Nc2ccc(Br)cc2)n(N)c1=O	-12%	-14%
O=C(CN1C2=NCCCN2c2ccccc21)c1cccs1	.	-5%
COc1cccc2cc(C(=O)N3CCN(C(=O)c4ccccc4)CC3)c(=O)oc12	2%	13%
Nc1ccc(-c2ccc(N)cc2C(F)(F)F)c(C(F)(F)F)c1	.	?

Fetched one by one from above:
Structure	VACV mCherry inh	VACV Venus inh
O=C(NN=C(Cc1ccccc1)Cc1ccccc1)c1ccccc1F	-1%	-8%
COc1cccc2cc(C(=O)N3CCN(C(=O)c4ccccc4)CC3)c(=O)oc12	2%	13%
CCOC(=O)c1cc(C(=O)n2cc(Cl)cn2)nn1C	-18%	-2%
COc1cccc(C(=O)Nc2ccc(-c3cc(C(F)(F)F)nn3-c3ccccc3)cc2)c1	-18%	?
Cc1oc(/C=N/NC(=O)CN(c2ccccc2Cl)S(C)(=O)=O)cc1Br	-20%	-26%

Following part.
Structure	VACV mCherry inh	VACV Venus inh
CC(C)OC(=O)c1nnn(-c2nonc2N)c1CN1CCCCCC1	2%	-5%
Nc1ccc(S(=O)(=O)N2CCCCC2c2cccnc2)cc1 (stereo not given)	i	-7%
CC1(C)CC(NC(=O)Cc2ccc(Cl)cc2)CC(C)(C)N1	-14%	-2%
NCCCC[C@H]1CNC(=S)N1CC1(c2ccccc2)CC1	i	-5%
COc1ccc(NC(=O)C2(c3ccccc3)CCCC2)cc1	-4%	10%
COc1ccc(-n2c(=O)c3ccc(C(=O)NCc4ccc(C)cc4)cc3n(Cc3ccc(Cl)cc3)c2=O)cc1	-5%	-6%
COc1ccccc1N(C(=O)Cn1nnc2ccccc21)C(C(=O)NCc1ccco1)c1ccc(C)o1 (stereo not given)	.	-14%
Nc1cc2c(cc1Cl)-c1ccccc1C2	-20%	-18%
Cc1nnc(NC(=O)C2CCCN2S(=O)(=O)c2ccc(Cl)cc2)s1 (stereo not given)	-28%	-10%
Cc1ccc(NC(=O)CSc2ccccc2NC(=O)c2ccccc2Cl)cc1Cl	i	-11%
COC(=O)c1ccc(/C=C2\N=C(SC)SC2=O)cc1	-13%	-2%
Cc1cccc(C(=O)Nc2ccc(C(=O)N/N=C/c3ccco3)cc2)c1	5%	-8%
Cc1ccc(S(=O)(=O)c2nc(N3CCOCC3)sc2Cl)cc1	.	-17%
O=C(NCC1=C(c2ccc3ccccc3c2)C[C@@H]2CC[C@H]1N2Cc1ccco1)c1cccnc1	-11%	-8%
CNc1oc(-c2ccc(F)cc2)nc1S(=O)(=O)c1ccccc1	?	-5%

(list continues)
Structure	VACV mCherry inh	VACV Venus inh
CC(C)n1cc(/C=N/NC(=O)COc2cccc3cccnc23)c2ccccc21	?	?
Cc1ccc(C(=O)OCC(=O)NCC(F)(F)F)cc1C	-13%	-10%
CCOC(=O)c1ccccc1NC(=O)CN1CCCN(Cc2cc(C)ccc2C)S1(=O)=O	-24%	-14%
COc1cccc(CNC(=O)C2CCCN(c3nnc(-n4c(C)ccc4C)s3)C2)c1 (stereo not given)	-17%	-8%
CC(c1ccncc1)C(C)c1ccncc1 (stereo not given)	0%	-5%
Cc1cc(C(=O)NNC(=O)c2c(-c3c(Cl)cccc3Cl)noc2C)no1	-16%	-5%
Cc1cc(C)c(C(=O)Cn2nc(C)c([N+](=O)[O-])c2C)cc1C	i	-14%
COCCNC(=O)c1ccc(CS(=O)(=O)c2cccc(C(F)(F)F)c2)o1	-7%	-14%
Cc1ccc(OCC(=O)Nc2ccc(N3CCN(C(=O)c4ccco4)CC3)cc2)cc1	-21%	-14%
COc1cc2cc(CN(CCCN3CCOCC3)C(=O)Nc3ccccc3F)c(=O)[nH]c2cc1OC	-5%	3%
c1ccc(Oc2ccc(-c3ccn[nH]3)cc2)cc1	-22%	-15%
O=C(/C=C/c1ccc(Cl)cc1)Nc1cc(S(=O)(=O)N2CCOCC2)ccc1N1CCOCC1	?	?
CCc1nnc(NC(=O)CSc2nc(C3CCCCC3)nc3ccccc23)s1	-13%	-11%
CCCN(CCC)C(=O)Cn1c(=O)n(-c2cccc(C)c2)c(=O)c2c1c1cc(OC)ccc1n2C	-7%	-10%
CCOc1cc(C(=O)OCC(=O)N(C)c2ccccc2)cc(OCC)c1OCC	-9%	-24%

Next section:
Structure	VACV mCherry inh	VACV Venus inh
Cc1ccc(NC(=O)c2ncn(CCCNCc3ccc4c(c3)OCO4)n2)cc1C	-27%	?
CC(C)CCNC(=O)N1CCN(S(=O)(=O)c2ccc3c(ccn3C)c2)CC1	-18%	-4%
COc1cc2cc(CN(CCc3cccc(C)c3)C(=S)NCCCN3CCOCC3)c(=O)[nH]c2cc1OC	-3%	?
Cc1cc(C)nc(NC(=NCCc2c[nH]c3ccccc23)NC(=O)Nc2cccc([N+](=O)[O-])c2)n1	-25%	-15%
CCN=C1SC(C(=O)Nc2cc(Cl)cc(Cl)c2)CC(=O)N1CC (stereo not given)	-3%	-5%
COC(=O)c1ccc(CSc2nnc(N)s2)o1	i	-16%
CC(=O)c1cccc(NC(=O)C(Cc2ccccc2)NS(=O)(=O)c2ccc(Br)s2)c1 (stereo not given)	-8%	-10%
Cc1ccsc1-c1ccnc(-n2cccc2)n1	-1%	-7%
N/C(=N\OC(=O)c1cccc2ccccc12)c1ccc(Br)cc1	3%	0%
Cc1ccc(S(=O)(=O)N2CCN(C(=O)CSc3ccc(F)cc3)CC2)cc1	-17%	1%
O=C(NNc1ccc(F)cc1F)c1c(F)cccc1Cl	?	20%
CCOc1cccc(C2C=C(c3ccc4c(c3)OCO4)NC(c3ccccc3F)N2)c1O (stereo not given)	-4%	-15%
Cc1cccc(Cc2cnc(NC(=O)C3Cc4ccc(C)cc4C(=O)O3)s2)c1 (stereo not given)	5%	0%
COc1cc2ccccc2cc1C(=O)Nc1cc(-c2nc3ccccc3o2)ccc1C	-1%	-1%
CC(=O)Nc1ccc(NC(=O)c2cc[n+]([O-])cc2)cc1	-20%	-2%

Continuation:
| Molecule | VACV mCherry inh | VACV Venus inh |
| --- | --- | --- |
| CN(C(=O)c1cccnc1)c1nnc(-c2cnccn2)s1 | -15% | -7% |
| CSCc1cc(N(C)C)nc(SCc2ccc(Cl)cc2Cl)n1 | -9% | -10% |
| CCN=C1SC(CC(=O)Nc2ccc(C)cc2)C(=O)N1CC (stereo not given) | -13% | -17% |
| Cc1cc(NC(=O)CN2C(=O)NC(CCc3ccccc3)C2=O)no1 (stereo not given) | i | -19% |
| CCOC(=O)c1nn(-c2ccc(C)cc2)c(=O)cc1OCC(=O)N1CCN(c2ccccc2)CC1 | -2% | -17% |
| CC(=O)c1ccc2c(c1)N(C)c1ccccc1S2 | -12% | -16% |
| COc1cc(Cl)c(NC(=O)CCc2nc3cccnc3n2-c2ccccc2)c(OC)c1 | -18% | -8% |
| O=C1CCCC(NCCCCCCNC2=C([N+](=O)[O-])C(=O)CCC2)=C1[N+](=O)[O-] | -8% | -9% |
| Cc1ccc(NC(=O)Cn2c(O)c(N=NC(=O)c3ccncc3)c3ccccc32)cc1 | -1% | -9% |
| CCOC(=O)/C=C1\CN(Cc2cc(OC)c(OC)c(OC)c2)S(=O)(=O)c2ccccc21 | -2%&-10% | ? |
| Cc1c(O)c(=O)n(-c2ccccc2)n1C | -10% | -11% |
| O=C1c2ccccc2S(=O)(=O)c2cc(N3CCN(c4ccccc4)CC3)ccc21 | -16% | -14% |
| NC(=O)c1c(NC(NC(=O)c2ccco2)(C(F)(F)F)C(F)(F)F)sc2c1CCCC2 | -16% | -5% |
| COc1ccc(Nc2nc(N)nc(CSC(=S)N3CCCCC3)n2)cc1 | -17% | -26% |
| Cc1ccc(-c2nnc(Oc3ccc(NC(=O)c4ccccc4)cc3)c3ccccc23)cc1 | -6% | -15% |
| NC(=O)CN1CCN(C(=O)Nc2ccccc2)CC1 | 7% | 3% |
| O=C1c2oc3ccccc3c(=O)c2C(c2cccc(Cl)c2)N1c1ccccn1 (stereo not given) | -6% | -12% |
| COC(=O)c1c(NC(=O)CSc2nnc(C)c(=O)[nH]2)sc(C)c1C | i | -1% |
| Cc1[nH]c2ccccc2c1C(=O)C(=O)N1CCCc2ccccc21 | ? | -26% |
| Brc1ccc(/C=C/C=N/Nc2nc3ccccc3s2)cc1 | -7% | 0% |
| CC(C)CC(=O)Nc1ccccc1-c1nnn(CC(=O)N2CCOCC2)n1 | i | -3% |
| CCOC(=O)c1[nH]c(C)c(C(=O)NCc2cccc(OC)c2)c1C | -18% | -6% |
| CC(C)CC(=O)Nc1ccc(C(=O)NN2C(=O)c3ccccc3C2=O)cc1 | -13% | -2% |
| CCCC/C=C1\CCc2c([nH]c3ccccc23)C1=O | i | -7% |
| CCOc1ccc(CCNc2ncnc3onc(C)c23)cc1OCC | -24% | -9% |
| O=C(Cn1nc(-c2ccccc2F)ccc1=O)Nc1ccc(S(=O)(=O)N2CCCCCC2)cc1 | -9% | -22% |
| CS(=O)(=O)N1CCN(c2nc(-c3ccc(F)cc3)cs2)CC1 | -17% | -11% |
| Cc1ccc(N2CCN(c3nc4c(S(=O)(=O)c5ccc(C)c(C)c5)nnn4c4ccccc34)CC2)c(C)c1 | -18% | -6% |
| CC(C)(C)c1ccc(C(=O)NCC(=O)NNC(=O)c2ccccc2O)cc1 | i | -19% |
| CC1CCN(C(=O)c2nc[nH]c2C(=O)OCCNC(=O)OC(C)(C)C)CC1 | -20% | ? |

(further entries)
| Molecule | VACV mCherry inh | VACV Venus inh |
| --- | --- | --- |
| CN(C(=O)CSc1nnc(-c2c[nH]c3ccccc23)o1)C1CCS(=O)(=O)C1 (stereo not given) | i | -9% |
| Cc1ccccc1N=C1Nc2ccccc2CS1 | . | -21% |
| O=C(c1cc(N2CCOCC2)c(F)cc1[N+](=O)[O-])N1CCOCC1 | -5% | -10% |
| O/N=C/c1ccccc1OCc1ccc(Cl)cc1 | -8% | 3% |
| CCOc1cc(/C=C2/SC(=O)N(CC(=O)N3CCc4ccccc4C3)C2=O)ccc1OCC(=O)O | . | -3% |
| CN(C)S(=O)(=O)c1ccc(NC(=O)c2cccnc2)cc1 | -9% | 4% |
| C[C@@H]1[C@H](c2ccccc2)OCCS(=O)(=O)N1Cc1cccc(Cl)c1 | i | -11% |
| CCN1C(=O)[C@H]2[C@@H](c3ccc(C)cc3)N3C(=O)N(c4ccc(C)cc4)C(=O)[C@@]3(Cc3ccccc3)[C@H]2C1=O | -8% | -5% |
| COc1ccc(C(=O)Nc2cccc(C)n2)cc1S(=O)(=O)N1CCCc2ccccc21 | -23% | -16% |
| Cn1c(CO)cnc1SCc1ccc(F)cc1 | -21% | -5% |
| Cc1ccccc1S(=O)(=O)N1C[C@@H]2C(C(=O)C[C@@H]3C(=O)N(C)C(=O)[C@@H]32)[C@@H]1c1ccc(Cl)cc1 (stereo not given in full) | ? | -10% |
| O=C1Nc2ccccc2Cc2ccccc21 | i | -7% |
| COc1cc(C(=O)Nc2cc(C(F)(F)F)ccc2N2CCOCC2)ccc1O | i | -1% |
| O=S(=O)(Cc1ccc(Cl)cc1Cl)c1ccc(Cl)cc1 | ? | -21% |
| Cc1ccc(NC(=O)Cn2ncc3c4ccccc4n(Cc4ccccc4)c3c2=O)cc1Cl | -16% | -4% |
| COc1ccc(S(=O)(=O)N2CCC(C(=O)NCc3cccnc3)CC2)cc1C | i | -3% |
| COC(=O)c1c(C)[nH]c(C(=O)OCC(=O)NC(C)(C)C)c1C | -17% | -7% |
| C/C(=N\NC(=O)c1cccs1)c1cccnc1 | 2% | 4% |
| Clc1ccccc1Cc1noc(CN2CCN(c3cnccn3)CC2)n1 | -1% | -11% |
| CC1Nc2ncnc(N3CCc4ccccc4C3)c2N(Cc2ccc(Br)cc2)C1=O (stereo not given) | -13% | -27%&-24% |
| O=c1cc(N2CCOCC2)cnn1-c1ccccc1 | i | -9% |
| Sc1ccccc1N=Cc1cccs1 | -18% | -6% |

Gathered by group, the compounds so far containing a nitro group on carbon
| Molecule | VACV mCherry inh | VACV Venus inh |
| --- | --- | --- |
| Cc1cc(C)c(C(=O)Cn2nc(C)c([N+](=O)[O-])c2C)cc1C | i | -14% |
| Cc1cc(C)nc(NC(=NCCc2c[nH]c3ccccc23)NC(=O)Nc2cccc([N+](=O)[O-])c2)n1 | -25% | -15% |
| O=C1CCCC(NCCCCCCNC2=C([N+](=O)[O-])C(=O)CCC2)=C1[N+](=O)[O-] | -8% | -9% |
| O=C(c1cc(N2CCOCC2)c(F)cc1[N+](=O)[O-])N1CCOCC1 | -5% | -10% |

Screening data deposited in PubChem by National Center for Advancing Translational Sciences (NCATS).
